Lassa entry inh: qHTS for Inhibitors of binding or entry into cells for Lassa Virus; Lassa virus pseudotype entry inhibition, cell reporter; control for the full effect not named in the record; Potency, µM (doses to about 37.9 µM), for inactives: at the highest dose activity change, negative = inhibition, most hits filed as inhibitors; 300,000 tested, 1.2% active; AID 540256, 2011; active means well fitted inhibition curve with a large enough effect; inconclusive means small, poorly fitted or top-dose-only effect, or effect the other way; inactive means flat fitted curve, though single readings scatter; tested in HEK293 cells; further: on the % scale 0 is the no-effect control and ±100 the full control effect; nearly all actives have a fitted effect of over 50% in size; luciferase read-out
RE007 growth inh: qHTS Assay for Inhibitors of the HIV-1 protein Vpr. Potency, µM (highest dose often 92.2 µM), for the others: top-dose activity change, negative = less growth. S. pombe RE007 Vpr strain, BacTiter-Glo ATP luminescence, 24 h; control for the full effect not named in the record. 360,000 tested, 0.21% active. AID 651644, 2012; active = well fitted falling curve with a large enough effect; inconclusive = small, poorly fitted or top-dose-only effect; inactive = no such curve, though single readings can be large or run the other way;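 further: on the % scale 0 is the no-effect control and ±100 the full control effect; nearly all actives have a fitted effect of over 50% in size; the assay follows cell death caused by Vpr and the record does not say whether a fall means rescue or toxicity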
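Fission yeast RE007 carrying one integrated HIV-1 vpr copy, seeded at OD 0.01 in PMG+AL medium with 23 nL pinned compound. Grown 24 h at 30 degrees; viability read by BacTiter-Glo luminescence after 5 min.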
Cruzain Triton: qHTS Assay for Promiscuous and Specific Inhibitors of Cruzain (with detergent). Potency, µM, for the others: max response, negative = inhibition, actives largely listed as inhibitors. purified cruzain, Z-FR-AMC fluorescence, 0.01% Triton. AID 1478, 2009. 200,000 tested, 0.43% active;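 further: plate controls were neutral wells for no effect and buffer without enzyme for full effect; nearly all actives have a fitted effect of over 40% in size; top concentration of the series not given in the record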
Target sequence (P25779 123-467 limits assumed): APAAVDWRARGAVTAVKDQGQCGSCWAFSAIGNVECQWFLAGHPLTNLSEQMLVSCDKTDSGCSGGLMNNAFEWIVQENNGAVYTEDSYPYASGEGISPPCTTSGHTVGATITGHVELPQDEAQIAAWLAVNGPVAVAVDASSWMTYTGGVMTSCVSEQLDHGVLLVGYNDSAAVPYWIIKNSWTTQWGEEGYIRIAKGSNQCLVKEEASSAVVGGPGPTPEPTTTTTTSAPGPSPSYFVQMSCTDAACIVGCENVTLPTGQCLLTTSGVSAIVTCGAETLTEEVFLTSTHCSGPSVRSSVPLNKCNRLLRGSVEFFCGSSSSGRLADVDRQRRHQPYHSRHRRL
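Enzyme 1.5 nM, Z-FR-AMC 2 uM, NaOAc 100 mM pH 5.5, DTT 5 mM, Triton X-100 0.01%; 15 min RT compound preincubation; kinetic ex360/em450, 60 s delta.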
StopGo reporter: High Throughput Screening for Foot and Mouth Disease Virus Antivirals | human cells with a luciferase reporter of 2A StopGo recoding; control for the full effect not named in the record | Potency, µM (doses to about 57.9 µM), for inactives: at the top dose signal change, negative = less light | 410,000 tested, 1.2% active | AID 1159524, 2015; active = well fitted falling curve with a large enough effect; inconclusive = small, poorly fitted or top-dose-only effect; inactive = no such curve, though single readings can be large or run the other way; tested in HEK293T cells; further: on the % scale 0 is the no-effect control and ±100 the full control effect; nearly all actives have a fitted effect of over 45% in size; luciferase light after 4 h
Cruzain noTriton: qHTS Assay for Promiscuous and Specific Inhibitors of Cruzain (without detergent) | purified cruzain, Z-FR-AMC fluorescence, no detergent | AID 1476, 2009 | 200,000 tested, 2.3% active | Potency, µM, without a hit: max response, negative = inhibition, usual class: inhibitors | Cruzipain (Trypanosoma cruzi), P25779;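 further: plate controls were enzyme without inhibitor for no effect and buffer without enzyme for full effect; nearly all actives have a fitted effect of over 40% in size; top concentration of the series not given in the record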
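Detergent-free condition (0.00005% Triton X-100) in acetate buffer pH 5.5 with DTT. 1.5 nM enzyme and compound were pre-mixed 15 min, then 2 uM Z-FR-AMC substrate added; reaction progress from fluorescence change between first and third reads (60 s).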
MARV entry inh: qHTS for inhibitors of binding or entry into cells for Marburg Virus; Marburg virus pseudotyped entry inhibition, cell reporter; control for the full effect not named in the record; about a third of the inactives were read at about 46 µM; Potency, µM (top dose mostly 37.8 µM), without a hit: at the highest dose activity change, negative = inhibition, most hits filed as inhibitors; 300,000 tested, 1.8% active; active = well fitted inhibition curve with a large enough effect; inconclusive = small, poorly fitted or top-dose-only effect, or effect the other way; inactive = flat fitted curve, though single readings scatter; tested in HEK293 cells; about a fifth of its hits are not listed in these tables; further: on the % scale 0 is the no-effect control and ±100 the full control effect; luciferase read-out
SARS PLP yeast: qHTS of Yeast-based Assay for SARS-CoV PLP; S. cerevisiae expressing SARS-CoV PLpro, growth rescue; control for the full effect not named in the record; Potency, µM (top dose mostly 32.9 µM), for inactives: top-dose activity, positive = growth rescue; 330,000 tested, 0.19% active; active means well fitted rising curve with a large enough effect; inconclusive means small, poorly fitted or top-dose-only effect; inactive means no such curve, though single readings can be large or run the other way; further: 0% is about no effect; nearly all actives have a fitted effect of over 55% in size; growth read by luminescence after 48 h
NS1 inh: qHTS Assay for Inhibitors of Influenza NS1 Protein Function; S. cerevisiae slowed by influenza A NS1, growth recovery by OD600; Potency, µM (doses to about 46.1 µM), for inactives: top-dose activity, positive = more growth; 270,000 tested, 0.4% active; active means well fitted rising curve with a large enough effect; inconclusive means small, poorly fitted or top-dose-only effect; inactive means no such curve, though single readings can be large or run the other way; further: nearly all actives have a fitted effect of over 50% in size
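Read-out: OD600 growth recovery of NS1-expressing budding yeast. Cells grown overnight at 30C in -URA glucose medium, washed, resuspended and diluted 1:100 in 2% galactose assay medium, pH 6.0. Same strain lacking NS1 served as positive control.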
Active calls of the source: *; ? = inconclusive; nt = not tested or not shown; & = joins results of further samples; [ ] = another dose, or the depositor's remark. Unless noted, the call rests on the fitted dose curve; in most records, active means well fitted curve in the direction sought with a large enough effect; inconclusive means small, poorly fitted or top-dose-only effect, or another doubt; inactive means no such curve, though single readings can be large; an effect the other way counts as inactive or inconclusive. Potency means the concentration at half of the fitted maximal effect.

Structure	SARS PLP yeast	Cruzain Triton	Lassa entry inh	Cruzain noTriton	MARV entry inh	StopGo reporter	RE007 growth inh	NS1 inh
CCOC(=O)N1CCN(C(=O)Cn2ncc3c2-c2ccccc2OC3)CC1	6%	2.6%	nt	-23%	nt	-1%	4%	11%
Cc1cc(SCn2nnc3ccccc3c2=O)nc2ccccc12	-9%	-6.2%	-11%	-13%	-6%	-2%	-4%	2%
Cc1nn(-c2ccccc2)c(Cl)c1C1C(C#N)=C(N)Oc2c1c(C)nn2-c1ccccc1 (stereo not given)	-12%	-1.6%	7%	2%	-12%[46.1 µM]	?	-11%	4%
COc1ccc(C2CC(=O)c3c([nH]c(C(=O)OC4CCC(C)CC4)c3C)C2)cc1OC (stereo not given)	nt	0.6%	4%[46.1 µM]	0%	11%[46.1 µM]	-11%	nt	nt
C/C(N)=C(/C#N)C(=O)COC(=O)C1=NN(c2ccccc2)C(=O)CC1	-3%	nt	nt	nt	nt	-27%	-2%	3%
NS(=O)(=O)c1ccc(CCNC(=O)c2ccc(CS(=O)(=O)c3ccc(Br)cc3)o2)cc1	2%	nt	nt	nt	nt	0%	1%	4%
O=C1CC(c2ccc3c(c2)OCCO3)Oc2ccc([N+](=O)[O-])cc21 (stereo not given)	0%	nt	nt	nt	nt	?	-7%	-4%
COc1ccc2[nH]c3c(NCCCN4CCCC4=O)ncnc3c2c1	7%	?	-11%	-23%	12%	47%[activator]	-6%	9%
CCC(C)(C)NC(=O)C(c1ccccn1)N(C(=O)c1csnn1)c1ccc(C)cc1 (stereo not given)	0%	nt	-1%[46.1 µM]	nt	?	-14%	8%	-2%
O=C(NCCc1cn[nH]c1)C1CCC(=O)N(CCc2cccc(F)c2)C1 (stereo not given)	-6%	nt	nt	nt	nt	-16%	12%	7%
CC(=O)Nc1ccc(NC(=O)Nc2ccccc2)cc1	2%	nt	nt	nt	nt	27%	-4%	0%
Cc1ccc(/C=C/C(=O)O)cc1S(=O)(=O)NCCCC(=O)O	5%	1.7%	10%	2%	10%	-19%	-6%	24%
N#CCCCSc1nnc(-c2ccc(Cl)cc2)n1-c1ccccc1	-7%	3.1%	2%	6%	-18%	nt	1%	-48%
CCC1CCCCN1C(=O)COc1ccc2c(c1)OCO2 (stereo not given)	1%	nt	17%[46.1 µM]	nt	7%[46.1 µM]	-1%	5%	3%
COc1cc(/C=N/NC(=O)CN(Cc2ccco2)S(=O)(=O)c2ccccc2)ccc1O	-9%	-3.4%	-11%	-1%	7%	0%	4%	13%
N/C(=N\OC(=O)c1ccc([N+](=O)[O-])cc1)c1ccccn1	1%	nt	?	nt	?	14%	-4%	-2%
Cc1cccc(NC(=O)CSc2nnc(NC(=O)c3ccco3)s2)c1	5%	nt	10%	nt	2%	0%	-13%	nt
c1csc(CSc2nnc3sc4ccccc4n23)c1	-10%	-3.7%	10%	2%	?	56%[activator]	-13%	-2%
O=C(CN1CCOCC1)Nc1cccc(C(F)(F)F)c1	nt	nt	7%	nt	-8%	-3%	-11%	nt
COc1ccc(CNC(=O)COC(=O)C2CCC(C(C)(C)C)CC2)cc1 (stereo not given)	12%	-3.8%	?	8%	?	?	-3%	-8%
COc1ccc(Nc2nc3ccccc3c(=O)s2)c(OC)c1	5%	0.5%	0%	3%	-5%	4%	16%	?
Cc1cccc(-c2nc3c4ccccc4n(CC(=O)Nc4cccc(F)c4)c(=O)n3n2)c1	nt	-3.6%	-13%[46.1 µM]	0%	nt	-8%	nt	nt
Cc1cccc(C(=O)Nc2nnc(-c3ccncc3)o2)c1	-2%	nt	0%[46.1 µM]	nt	?	13%	6%	nt
Cc1ncc(CO)c2c1Oc1nc(-c3ccccc3)nc(SCC(=O)N3CCCCC3)c1C2	6%	-2.3%	?	3%	?	-28%&-21%	1%	25%
CC(=O)Nc1ccccc1OC(C)C(=O)N1CC(C)CC(C)C1 (stereo not given)	-1%	nt	-6%[46.1 µM]	nt	5%[46.1 µM]	-20%	-13%	5%
CC(C)(C)C1CCC(=NNC(=O)CC(=O)NCc2ccccc2)CC1 (stereo not given)	-19%	-1.4%	-2%	1%	8%	-12%	0%	-1%
C/C(=N\NC(=O)c1ccc([N+](=O)[O-])cc1)c1c(O)cc(C)oc1=O	-7%	nt	-12%	nt	-2%[46.1 µM]	33%[activator]	14%	nt
Cn1c(=O)c2[nH]c(C3CC3)nc2n(C)c1=O	nt	nt	-1%[46.1 µM]	nt	10%	-12%	9%	nt
Cc1ccc(S(=O)(=O)NC2CCSC2=O)cc1C (stereo not given)	6%	nt	6%	nt	8%	-17%	-15%	nt
CCOc1cccc2cc(C(=O)NCc3ccccc3)c(=N)oc12	1%	nt	nt	nt	nt	11%	9%	-9%
COc1cccc(NC(=O)C2C3C=CC4(O3)C2C(=O)N(C2CC2)C4C(=O)NC2CCCCC2C)c1 (stereo not given)	-2%	0.3%	?	-2%	1%	13%	-14%	3%
OC1(c2ccccc2)C/C(=N\n2cnnc2)C=C1c1ccccc1 (stereo not given)	5%	-0.6%	-3%	14%	7%	nt	-11%	-4%
CCOc1ccccc1C(=O)NCC(=O)OCCCOC(=O)CNC(=O)c1ccccc1OCC	-9%	nt	16%	nt	-2%	-12%	-3%	nt
COc1ccc(C2CC(=O)N(Cc3ccc(F)cc3)c3ccccc3S2)cc1 (stereo not given)	nt	-5.1%	nt	-12%	-9%[46.1 µM]	?	nt	nt
CN(Cc1nc(-c2cccs2)no1)CC1COCCO1 (stereo not given)	1%	nt	nt	nt	nt	24%	20%	0%
O=c1[nH]cnc(O)c1C(c1cccc([N+](=O)[O-])c1)c1c(O)nc[nH]c1=O	1%	nt	-12%	nt	18%	-6%	-12%	0%
CSC1SCC2C(=O)N(C)C(C(C)C)C(=O)OCC(NC(=O)c3cnc4ccccc4n3)C(=O)NC(C)C(=O)N(C)C1C(=O)N(C)C(C(C)C)C(=O)OCC(NC(=O)c1cnc3ccccc3n1)C(=O)NC(C)C(=O)N2C (stereo not given)	nt	nt	?	nt	?	0%	?	nt
COc1ccc(C(C)=O)cc1CSc1nnc(-c2ccncc2)o1	-2%	nt	nt	nt	nt	-6%	-15%	-7%
COc1ccc(CCC(=O)NNC(=S)NCc2ccc(F)cc2)cc1	-1%	nt	nt	nt	nt	?	-1%	1%
O=C(CCc1nnc(CCCCc2ccccc2)o1)N1CCCC(O)C1 (stereo not given)	-2%	nt	nt	nt	nt	7%	-15%	-5%
COC(=O)C1ON2OC(C(=O)OC)C(C(=O)OC)C2C1CC(C)=O (stereo not given)	3%	4.5%	13%	1%	7%	2%	-2%	3%
CCCNc1c(N)c(=O)c1=O	-2%	nt	nt	nt	nt	-12%	16%	7%
COc1cccc(OCC(=O)N2CCN(C)CC2)c1	4%	4.3%	19%	-2%	-3%	nt	-7%	6%
CCCC1=[N+](CC(=O)c2ccc(C)cc2)CCn2cccc21	13%	-5.9%	7%	-2%	?	-30%	0%	-3%
Cc1ccc(-c2nnc(N)o2)cc1	10%	-0.9%	4%	-11%	5%	41%[activator]	-15%	6%
COC(=O)c1ccc(Oc2cc(C)nc(SC)n2)cc1	1%	-1.2%	-16%	8%	?	2%	32%	2%
CCOC(=O)N1CCN(C(=O)/C(=C/c2cccc3ccccc23)NC(=O)c2ccc(OC)cc2)CC1	-1%	-9.5%	?	?	-15%	8%	20%	8%
CC(C)(C)NC(=O)C(c1ccncc1)N(C(=O)Cn1nnc(-c2ccc(F)cc2)n1)c1ccc(F)cc1 (stereo not given)	0%	nt	-9%	nt	?	-3%	-5%	-1%
CSCCC(NC(=O)c1c(C)oc2c1CCCC2)C(=O)O (stereo not given)	4%	4.8%	19%	0%	-23%	-13%	-1%	-2%
Cc1ccc(CNC(=O)CCS(=O)(=O)c2cc(Br)cc3c2N(C(=O)C2CC2)CC3)cc1	nt	-3.8%	17%[46.1 µM]	-5%	2%[46.1 µM]	19%	nt	nt
CCN(CC(=O)NC1CCCCCC1)S(=O)(=O)c1ccccc1	-1%	0.5%	-10%	8%	-8%	-11%	-10%	1%
Cc1c(NC(=O)C23CC4CC(CC(C4)C2)C3)c(=O)n(-c2ccccc2)n1C	4%	nt	nt	nt	nt	3%	3%	13%
CCOC(=O)c1cnn(-c2nc3sc4c(c3c(=O)[nH]2)CCCC4)c1N	-10%	3.7%	nt	3%	nt	nt	nt	-59%
C=C(C)C1Cc2c(C)nn(-c3ccccc3)c2C1 (stereo not given)	-5%	-2.4%	7%	-5%	1%	-3%	-14%	-27%
O=C(CCS(=O)(=O)c1ccc(Br)cc1)NCCc1ccc(Cl)cc1	-1%	nt	nt	nt	nt	-17%	-9%	-3%
O=C(NCC(F)(F)F)Nc1ccccn1	4%	1.6%	7%	10%	7%	7%	-7%	-3%
CCC(=O)OCn1nnc2ccccc2c1=O	1%	nt	nt	nt	6%[46.1 µM]	8%	-1%	nt
COc1ccc(Nc2ccc(C(N)=O)cc2[N+](=O)[O-])cc1	1%	nt	18%	nt	-9%[46.1 µM]	0%	18%	nt
Cn1c(SCc2ccccc2)nnc1-c1ccc(O)cc1	3%	nt	?	nt	6%	60%[activator]	8%	3%
